Compound activity as filed in PubChem BioAssay.
gsp ag: agonists of gsp mutant (McCune-Albright syndrome); gsp mutant cells, cAMP HTRF, 30 min; control for the full effect not named in the record; Potency, µM (top dose mostly 76.9 µM), inactives show at the highest dose activation (cAMP increase), actives largely listed as activators; hit rate 0.13% among 340,000; AID 624287; active = well fitted activation curve with a large enough effect; inconclusive = small, poorly fitted or top-dose-only effect, or another doubt; inactive = no such curve, though single readings can be large or run the other way; cell line not stated here;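 note: phosphodiesterase inhibitor Ro 20-1724 added with compounds to block cAMP breakdown; potency is the fitted concentration of half-maximal effect; nearly all actives have a fitted effect of over 60% in size; about a fifth of the inactives were tested at one dose only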
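Cells stably selected in G418 were plated at 2000/well, grown 16-24 hr, then given compounds in DMSO with the PDE inhibitor […] (300 uM solution added) for 30 min at 37C; cAMP was read by HTRF.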
TRPML1 blocker: blocks the human TRPML1 channel. activity change, negative = inhibition, % (test concentration not listed). Q9GZU1. TRPML1-inducible cells, Ca2+ dye fluorescence, FDSS; stronger effect = lower value; inhibition of EC80 agonist-evoked calcium signal. hit rate 0.02% among 390,000; in the data active means activity change below about -50%; inconclusive means about -30% to -50%; inactive means above about -30%;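 note: stimulus is agonist 54-4 at its EC80 concentration; % is set by controls: 0 for no effect and ±100 for the full control effect; compound concentration not given in the record; the text of the record puts the active cut at -80%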
Target sequence (Q9GZU1 whole entry, looked up): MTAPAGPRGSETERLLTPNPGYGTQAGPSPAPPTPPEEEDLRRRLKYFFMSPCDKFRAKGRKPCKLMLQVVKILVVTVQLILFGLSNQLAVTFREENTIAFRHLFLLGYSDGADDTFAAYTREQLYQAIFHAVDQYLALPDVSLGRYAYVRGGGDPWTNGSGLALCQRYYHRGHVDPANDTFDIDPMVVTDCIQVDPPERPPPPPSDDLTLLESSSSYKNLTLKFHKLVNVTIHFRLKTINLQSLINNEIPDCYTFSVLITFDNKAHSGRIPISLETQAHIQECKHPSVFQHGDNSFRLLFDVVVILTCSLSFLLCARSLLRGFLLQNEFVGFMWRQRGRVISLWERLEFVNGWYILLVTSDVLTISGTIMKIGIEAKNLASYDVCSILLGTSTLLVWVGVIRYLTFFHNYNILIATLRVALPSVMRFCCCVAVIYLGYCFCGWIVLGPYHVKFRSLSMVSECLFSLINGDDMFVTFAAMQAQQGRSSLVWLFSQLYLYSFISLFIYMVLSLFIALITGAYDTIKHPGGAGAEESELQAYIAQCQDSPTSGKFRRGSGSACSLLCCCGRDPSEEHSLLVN
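Calcium fluorescence in TRPML1-DL cells induced overnight with Tet: a 110 s read after compound pin addition, then a 110 s antagonist read after challenge with 54-4 at 4 uM final (EC80).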
TRPML1 ag: agonists of human TRPML1 channel; Q9GZU1; TRPML1-expressing cells, Ca2+ dye fluorescence, FDSS; host cell line not named in the record; reference of the full effect not given here; activation, % (no concentration beside the values); hit rate 0.12% among 410,000; AID 624414; in the data active = activation above about 50%; inconclusive = about 30% to 50%; inactive = below about 30%; note: 0% is about no effect; the text of the record puts the active cut at 80%
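Agonist activity was taken from a 110 s kinetic Ca2+ dye read on the FDSS after pinning compounds onto TRPML1-DL cells. The cells were seeded at 1,500/well with Tet inducer, incubated about 16 h, then dye-loaded at room temperature.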
Menin MLL FP FL: displaces fluorescein MLL peptide from human menin | Fluorescence polarization, fluorescein-MLL peptide displacement from menin | FP activity change, % at 61.4 µM | 290,000 tested, under 10 active; inconclusive = falling polarisation curve, or a change in total fluorescence; inactive = total fluorescence flat and polarisation flat or rising; no compound was filed as active; the % refers to the polarisation; negative = inhibition;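 note: % of control where 0% means no effect; inhibitors lower the polarisation; unlabelled MLL peptide was the positive control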
ClpP mod: qHTS Assay for Activators of ClpP | purified B. subtilis ClpP, FRET peptide cleavage, 20 min | hit rate 1.9% among 340,000 | ATP-dependent Clp protease proteolytic subunit (Bacillus subtilis (strain 168)), P80244 | Potency, µM (series often up to 57.5 µM), for the others: at the highest dose activity change, negative = active | AID 651965, 2013; active = well fitted falling curve with a large enough effect; inconclusive = small, poorly fitted or top-dose-only effect; inactive = no such curve, though single readings can be large or run the other way; note: potency is the fitted concentration of half-maximal effect; the source files actives as falling curves though it sought activators and does not explain the sign; nearly all actives have a fitted effect of over 65% in size; many hits overshoot -100%
Target sequence (P80244 whole entry, looked up): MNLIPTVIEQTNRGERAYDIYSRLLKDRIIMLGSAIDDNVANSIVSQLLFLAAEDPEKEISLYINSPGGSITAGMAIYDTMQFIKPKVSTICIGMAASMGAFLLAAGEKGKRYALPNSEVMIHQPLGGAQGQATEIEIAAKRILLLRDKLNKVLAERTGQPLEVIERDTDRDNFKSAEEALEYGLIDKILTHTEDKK
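Purified B. subtilis ClpP, 10 microg/mL final in Tris/HCl pH8 with KCl, BSA, glycerol and Tween-20, cleaved an Abz/nitrotyrosine-quenched decapeptide. Fluorescence (ex 320, em 430) was read at 0 and 20 min at room temperature. Delta was normalized to 5.8 microM ADEP and DMSO/no-enzyme controls.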
gsp antagonist: antagonists of gsp mutant (McCune-Albright syndrome) | gsp-mutant cells, cAMP HTRF, 30 min; control for the full effect not named in the record | hit rate 0.4% among 340,000 | AID 624288 | Potency, µM (series often up to 76.9 µM), without a hit: at the top dose activity change, negative = inhibition, most hits filed as inhibitors; active = falling curve of any shape with a large fitted effect; inconclusive = falling curve, mostly with a smaller effect; inactive = flat or rising curve; cell line not stated here;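 note: intracellular cAMP measured with PDE inhibitor Ro 20-1724 present during compound exposure; potency is the fitted concentration of half-maximal effect; % is set by controls: 0 for no effect and ±100 for the full control effect; nearly all actives have a fitted effect of over 65% in size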
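HTRF cAMP measurement after 30 min RT detection following 30 min, 37C compound treatment alongside […] (added as 300 uM solution) in G418-selected cells seeded at 2000/well and grown 16–24 h.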
Active calls of the source: *; ? = inconclusive; / = not tested or not shown; & = joins results of further samples; [ ] = remark or other dose.

Values run as follows: gsp ag, gsp antagonist, TRPML1 ag, TRPML1 blocker, Menin MLL FP FL, ClpP mod
CCCN(CC(=O)Nc1ccccc1OC)C(=O)c1ccc(S(=O)(=O)NCc2ccco2)cc1
 : -59%[inhibitor], -18%, 0.2, -2, /, -0.1%
CCCN(CCC)CCCNC(=O)c1cc2cc3ccc(Cl)cc3nc2o1
 : 13%[15.4 µM], 14%, -0.5, 14, -4.5, -1.2%
CC(=O)c1ccc(N2CCN(S(=O)(=O)c3c(C)[nH]c(C)c3C(=O)N3CCCC3)CC2)cc1
 : ?, -2%, 0.8, 14, 0.1, -11%
COc1ccc(CCC(C)NCc2cc(OC)cc(OC)c2)cc1 (stereo unspecified)
 : -73%[inhibitor], 0%, -0.5, 2, -2.7, -0.9%
O=C(O)c1ccccc1OC(C(=O)Nc1cc(Cl)cc(Cl)c1)c1ccccc1 (stereo unspecified)
 : -33%[inhibitor], 2%, 1.5, -6, /, /
Cc1ccc(C(=O)N2CCN(c3ccccc3Cl)CC2)cc1[N+](=O)[O-]
 : -5%, -38%, 3.6, 11, -8.3, 2.0%
CCCCN(CCCNC(=O)C1CCN(S(=O)(=O)N2CCOCC2)CC1)c1ccccc1
 : -2%, -9%, 2.6, -11, -4.8, -2.4%
CCCNC(=O)c1ccc(-c2nc3ccccc3s2)s1
 : -12%, -15%, 0.1, 3, 12, 2.8µM*
CC(C)C(NC(=O)c1ccccc1Cl)C(=O)OCc1nc2scc(-c3ccccc3Cl)c2c(=O)[nH]1 (stereo unspecified)
 : 25%, -10%, -0.2, 15, /, -1.7%
O=C(Cc1ccccc1)NC1(Cc2ccc(O)cc2)CCCCC1
 : 2%, 2%, -0.4, 4, 1.9, /
CCCn1c(=S)[nH]c2cc(C(=O)NCC3CCCO3)ccc2c1=O (stereo unspecified)
 : -71%, -8%, -1.1, 12, -0.3, 3.3%
COC(=O)CNC(=O)C(Cc1c[nH]c2ccccc12)NC(=O)Oc1ccccc1 (stereo unspecified)
 : 3%[15.4 µM], 2%, 0.8, -3, 7.2, /
CC(C)[C@H](NC(=O)c1ccccc1F)C(=O)NNC(=O)c1cccs1
 : 1%, 6%, -1.1, 29, /, -2.5%
COc1ccc(-c2oc(=O)c3cc(OC)c(OC)cc3c2-c2cc(F)cc(OC)c2)cc1
 : 18%, -12%, 0.3, 21, /, 20µM*
COc1ccc(/C=N/Nc2cn[nH]c(=O)c2Cl)cc1
 : -3%, -3%, -0.9, -3, -3.0, /
CCCN(C(=O)CSc1nnc(-c2ccc3c(c2)OCO3)o1)C1CCS(=O)(=O)C1 (stereo unspecified)
 : -15%, /, -0.1, 4, /, -5.1%
COc1cc2cc(C#N)c(SCC(=O)Nc3cc(C)on3)nc2cc1OC
 : ?, 4%, 0.0, 13, 11, /
CCN1CCN(CC(=O)c2c[nH]c3ccc(C)cc23)CC1
 : -3%, 11%, -0.5, 3, 0.7, 2.2%
CCCCCN1C(C(=O)c2ccccc2)=C(OC(=O)CC)c2ccccc2S1(=O)=O
 : /, /, 1.9, -15, /, 0.3%
Cc1ccc(NC(=O)CN(C)C(=O)CSc2nnc(C)s2)cc1
 : -18%, 9%, -0.5, 2, /, /
CCCC(=O)Nc1ccc(C(=O)NN=C(C2CC2)C2CC2)cc1
 : -9%, -9%, -0.6, 10, 3.1, 1.3%
Cc1ccc(C(=O)OCC(=O)NCc2ccc(F)cc2)o1
 : 14%, 22%, 2.2, -8, /, -0.6%
Cc1nc(SC(C)C(=O)NC2CCCCC2C)c2c(C)c(C)sc2n1 (stereo unspecified)
 : -1%, 7%, -0.6, 10, -1.5, 0.7%
Cc1ccc(N2C(=O)N(CC(=O)N3CCCc4ccccc43)C(=O)C2C)cc1 (stereo unspecified)
 : 10%, -6%, 1.5, 9, 1.0, 0.0%
CC1SCC(NC(=O)c2ccccc2Cl)CS1 (stereo unspecified)
 : -36%[inhibitor], -1%, 0.0, 17, 1.5, /
Cc1cc(C)c2cc(CNC3CCCC3)c(Cl)nc2c1
 : 2%, 3%, -0.4, -20, 0.7, 4.0%
Cn1cnnc1-c1cccc(NC(=O)c2cc(F)c(F)cc2Cl)c1
 : ?, -1%, -0.2, -11, -3.4, -2.2%
COc1ccc(Nc2cc(C)c3cc(NC(=O)COc4cccc(C)c4)ccc3n2)cc1
 : /, /, -0.4, 17, /, ?
Cc1cc(C)cc(-n2ccnc2SCC(=O)Nc2ccccc2F)c1
 : /, /, 1.9, 3, /, 0.2%
Cc1ccc(Nc2nc(N3CCOCC3)c3ccccc3n2)cc1
 : 17%, ?, -0.8, -10, -0.5, -25%
CCOC(=O)C1(NC(=O)C2(NC(=O)CN3C(=O)c4ccccc4C3=O)CCCC2)CCCC1
 : 15%[15.4 µM], 8%, 0.0, -10, /, -0.9%
COC(=O)c1ccccc1NC(=S)NC(=O)c1ccccc1F
 : 4%, -7%, -0.5, 15, -0.2, -6.0%
Cc1cccc(C)c1NC(=O)C1(N(Cc2ccco2)C(=O)Cn2nnnc2N)CCCCC1
 : -20%, -11%, -0.9, -4, -0.6, -4.0%
CC[C@]1(C(=O)OC)[C@H]2C(=O)N(Cc3ccccc3)C(=O)[C@H]2[C@H]2CN=C(SCc3ccccc3)N21
 : /, -6%, 1.5, 20, /, 0.0%
Cc1nn(Cc2ccc(Cl)cc2Cl)c(C)c1NC(=O)c1sc2ccccc2c1Cl
 : 17%, 11%, 0.2, -6, 8.2, 0.2%
CCC(C)(C)C1CCC(=NNC(=O)c2ccc(Br)o2)CC1 (stereo unspecified)
 : 25%, -7%, -0.4, 10, 4.6, 25µM*
CC(C)(C)C(=O)NC(=S)Nc1cc(C(=O)O)ccc1Cl
 : -6%, -18%, -0.5, 8, -0.6, ?
Cc1cc(-c2nn3c(-c4ccccc4)nnc3s2)c2ccccc2n1
 : ?, 13%, 1.9, 1, -2.3, -2.5%
O=C(c1cncc(Br)c1)N1CCN(c2ccc(N3CCOCC3)nn2)CC1
 : -8%, 1%, -0.3, 20, -1.8, ?
COc1ccc(Cc2nc3ccccc3[nH]c2=O)cc1
 : 21%[15.4 µM], -22%, -0.2&-0.8, 2&-13, -1.6, -0.7%
COc1ccc(O)c(/C=N/NC(=O)CN2CCS(=O)(=O)CC2)c1
 : -29%, -7%, 1.1, 0, /, -5.3%
CCCCOc1ccc(/C(O)=C(\C#N)c2nc3ccccc3[nH]2)cc1
 : 1%, 6%, 1.0, -9, -1.0, /
CC(C)(C)NC(=O)c1ccc2c3c(cccc13)CC2
 : -2%[15.4 µM], 8%, 2.3, -17, -3.4, /
COc1ccc(S(=O)(=O)NCCc2csc3nc(-c4ccc(OC)c(OC)c4)nn23)cc1C
 : /, /, 1.8, -14, /, -0.3%
O=C(NCCN1C(=O)S/C(=C/c2cccnc2)C1=O)c1ccc(S(=O)(=O)N2CCCC2)cc1
 : ?, -2%, -1.2, 2, /, /
C=CCNC(=O)c1ccc2nccnc2c1
 : 8%, 4%, 0.7, 6, 4.0, 0.6%
Oc1ccccc1/C=N/N1CCN(c2ccccn2)CC1
 : 4%, -11%, -0.8, -6, 3.6, /
Cc1cccc(C)c1NC(=O)c1c(C)oc2c1C1=NCCN1C=N2
 : /, /, -0.7, -10, /, -1.3%
Cc1ccccc1NC(=O)COc1coc(CN2CCN(c3ccccc3)CC2)cc1=O
 : -1%, 2%, 1.2, 16, /, -1.1%
CC1(C)CC(=O)C2=C(C1)Nc1ccccc1NC2c1cccs1 (stereo unspecified)
 : 6%[15.4 µM], -32%, -1.3, 11, -5.2, /
CCOc1ccc(CCNC(=O)CCc2nnc3ccc(N4CCCC4)nn23)cc1OCC
 : ?, -13%, 4.8, -21, 0.5, -1.3%
COc1cc(/C=N/NC(=O)C(=O)Nc2ccccn2)ccc1O
 : -14%, -13%, 0.1, 23, -0.4, 1.6%
COc1ccc2oc(C(=O)NCc3cc(OC)c(OC)cc3OC)c(C)c2c1
 : 5%[15.4 µM], 0%, 1.3, 45, 0.7, /
O=C(O)c1cnn2c(-c3ccc(F)cc3)ccnc12
 : 4%, 3%, -0.3, -2, 3.0, /
O=[N+]([O-])c1ccc(C(c2sc3nc(-c4ccco4)nn3c2O)N2CCN(Cc3ccccc3)CC2)cc1 (stereo unspecified)
 : /, /, 2.4, 0, /, -3.4%
CCC(C)(C)NC(=O)C(C)OC(=O)c1nsc(Cl)c1Cl (stereo unspecified)
 : 7%, -2%, -0.3, 4, -1.3, -2.1%
O=C(C1CCCN(S(=O)(=O)c2cnc[nH]2)C1)N(CCc1ccccc1)Cc1ccccc1 (stereo unspecified)
 : -88%[inhibitor], 1%, -0.4, -4, -1.2, 1.6%
CCOc1ccc(S(=O)(=O)N2CCN(S(=O)(=O)c3ccc(C(C)=O)cc3)CC2)cc1
 : 14%[15.4 µM], 3%, -0.2, -9, -4.3, /
CCOC(=O)c1cc(-c2ccccc2)sc1NC(=S)Nc1cccc(C)n1
 : -6%, ?, 0.9, -13, 1.7, -0.8%
COc1cc(-c2cc3nc(NCc4ccco4)ccn3n2)cc(OC)c1OC
 : /, /, 0.2, 9, /, 4.5%

Results in Menin MLL FP FL (two entries from above):
SMILES,Menin MLL FP FL
CC1(C)CC(=O)C2=C(C1)Nc1ccccc1NC2c1cccs1 (stereo unspecified),-5.2
CCOc1ccc(S(=O)(=O)N2CCN(S(=O)(=O)c3ccc(C(C)=O)cc3)CC2)cc1,-4.3

Carrying on.
Values run as follows: gsp ag, gsp antagonist, TRPML1 ag, TRPML1 blocker, Menin MLL FP FL, ClpP mod
CNc1nc(SCc2ccccc2Cl)nc2c1CCCC2
 : -8%, -23%, -0.1, -24, 1.1, -2.5%
COc1ccc(S(=O)(=O)N(C)c2ccc(OC(=O)C(C)Oc3ccc(F)cc3)cc2)cc1 (stereo unspecified)
 : -2%, -12%, 1.1, 47, /, 218%
CSCCC(NC(=O)COc1ccccc1)C(=O)N1CCC(C(N)=O)CC1 (stereo unspecified)
 : -6%, 5%, 0.2, -5, /, -2.5%
COc1ccc(C(=O)NC2CCN(C(=S)NCc3ccco3)CC2)cc1
 : 3%, 6%, -0.2, 23, 1.1, 0.1%
O=C(c1[nH]ncc1[N+](=O)[O-])N1CCOCC1
 : -7%, -4%, 1.1, -2, -0.3, -0.5%
COc1ccc(CNC(=O)CCCn2nc(C)c([N+](=O)[O-])c2C)cc1
 : -6%, 1%, 1.3, -15, 3.9, -0.8%
Cc1cc(SCC(=O)NN)c2cc(Br)ccc2n1
 : ?, 5%, 1.3, -18, 6.2, /
CC(C)(C)NC(=O)CN(C(=O)c1snc(C(=O)NC2CCCCC2)c1N)c1ccccc1F
 : 25%, -15%, 1.8, ?, -4.2, /
CN1CCN(S(=O)(=O)c2cccc(C(=O)NCCOc3ccccc3)c2)CC1
 : -19%, 3%, -0.6, -19, /, 0.6%
CCNc1nc(Oc2c(Cl)cccc2Cl)cc(C(F)(F)F)n1
 : 5%, -16%, -0.4, -6, 1.1, ?
